# VDR inh: blocks the human vitamin D receptor; 0.93% of 400,000 active; AID 504847; Potency, µM, without a hit: max response, negative = inhibition, actives largely listed as inhibitors; VDR-SRC2-3 peptide fluorescence polarization, 2 h; active = well fitted inhibition curve with a large enough effect; inconclusive = small, poorly fitted or top-dose-only effect, or another doubt; inactive = no such curve, though single readings can be large or run the other way; also: series mostly up to about 120 µM
# Target sequence (P11473 whole entry, looked up): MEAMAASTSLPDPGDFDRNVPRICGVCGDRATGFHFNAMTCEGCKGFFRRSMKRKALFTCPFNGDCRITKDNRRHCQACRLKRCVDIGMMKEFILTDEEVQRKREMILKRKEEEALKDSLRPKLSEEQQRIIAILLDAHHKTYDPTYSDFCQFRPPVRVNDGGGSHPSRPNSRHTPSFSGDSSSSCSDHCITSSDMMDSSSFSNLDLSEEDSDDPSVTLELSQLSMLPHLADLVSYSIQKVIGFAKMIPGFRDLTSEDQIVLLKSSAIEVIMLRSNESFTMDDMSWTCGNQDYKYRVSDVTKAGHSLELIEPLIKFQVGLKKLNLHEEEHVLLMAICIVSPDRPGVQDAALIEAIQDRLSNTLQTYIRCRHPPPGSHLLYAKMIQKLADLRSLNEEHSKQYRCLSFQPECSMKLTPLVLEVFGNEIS
#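 Measured by FP: displacement of SRC2-3 coactivator peptide from VDR by library compounds, following a two-hour ambient incubation.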
# The depositor's hits bear a star; ? = inconclusive; & = joins results of further samples. % is scaled to controls: 0 for no effect and ±100 for the full control effect; potency is read from the fitted curve at half-maximal effect. Some of the compounds tested; rates above refer to the full screens.
VDR inh | Molecule
9% | O=C(Nc1cccc2c1CCCC2)c1cc([N+](=O)[O-])ccc1Cl
-6% | O=C1CCC(C(=O)N2CCCCO2)CN1Cc1cccc(F)c1 (stereo unspecified)
-4% | Cc1ccc(O)c(NC(=O)C2CC(c3c(F)cccc3Cl)=NO2)c1 (stereo unspecified)
-13% | Nc1ccc2c(c1)C/C(=C/c1ccco1)C2=O
-13% | CC[n+]1c(/C=C2\Sc3ccccc3N2C)ccc2cccc(C)c21
-6% | COC(=O)c1[nH]c2ccccc2c1NC(=O)CN1CCN(C(=O)c2ccco2)CC1
79µM* | CN(C)S(=O)(=O)c1ccc2nnn(O)c2c1
-1% | Cc1ccc(S(=O)(=O)c2nc(S(C)(=O)=O)sc2N2CCC3(CC2)OCCO3)cc1
17% | C/C(=N\NC(=O)c1ccc(CN2CCOCC2)cc1)c1ccc(NC(=O)c2ccccc2)cc1
-7% | O=C(N=Nc1c(O)[nH]c2ccccc12)c1cc(NS(=O)(=O)c2cccs2)cc(NS(=O)(=O)c2cccs2)c1
3% | CCOC(=O)N1CCN(C(=O)C2CCN(S(=O)(=O)c3cc(Cl)ccc3OCC)CC2)CC1
2% | CNc1ccccc1C(=O)OC(C)C(=O)Nc1ccc(Cl)cn1 (stereo unspecified)

# (cont.)
VDR inh | Molecule
7% | Cc1cc2c(cc1S(=O)(=O)Nc1cccc(Cl)c1C)OCCN2C
-1% | CC(=O)Nc1c(NC(=O)CC#N)[nH]c2c(c1=O)c(=O)n(C)c(=O)n2C
-18% | COc1ccccc1/C=C(/C(=O)NCCCn1ccnc1)c1ccccc1
-2% | COc1ccccc1C1C(C(N)=O)=C(C)Nc2nc(CCCO)nn21 (stereo unspecified)
-27% | CCN(C(=O)Cn1c(=O)oc2ccccc21)c1cccc(C)c1
10%&-7% | COCCCNC(=O)c1ccc2c(=O)n(Cc3ccc(OC)cc3)c(=O)[nH]c2c1
1% | CC(C)CCn1c(=O)c2ccccc2n2c(CN3C(=O)NC4(CCC(C)CC4)C3=O)nnc12 (stereo unspecified)
15% | COc1ccccc1C(=O)NC(=O)COC(=O)CNC(=O)c1ccc(Cl)c([N+](=O)[O-])c1
22µM* | CC(CCC(C)C(C)(C)C)[C@@H]1CC[C@H]2C3C[C@H](OS(O)(=S)=S)[C@H]4C[C@H](OS(O)(=S)=S)[C@@H](OS(O)(=S)=S)C[C@]4(C)[C@H]3CC[C@]12C (stereo partly specified) (tested in a mixture with another compound)
9% | COc1ccc2c(c1)c1c(c(=O)n(-c3cccc(C)c3)c(=O)n1CC(=O)NCc1ccc(C)cc1)n2C
-9% | CCCc1ccc(S(=O)(=O)N(C)S(=O)(=O)c2ccc(F)cc2)cc1
-6% | C=CCCC(=O)Nc1nc(C)c(-c2csc(Nc3ccccc3OC)n2)s1

# (cont.)
VDR inh | Molecule
-9% | COc1cc(/C=C2\SC(=Nc3ccc(N4CCOCC4)cc3)N(C)C2=O)ccc1OC(C)C(=O)O (stereo unspecified)
13% | CC(=O)NC1[C@H](O)C[C@@](O)(C(=O)O)O[C@H]1[C@H](O)[C@H](O)CO (stereo partly specified)
-7% | COc1ccc(NC(=O)CO/N=C2/CCCc3nonc32)c(OC)c1
3% | Cc1ccccc1Nc1nc(N)nc(CSc2nnnn2-c2ccccc2)n1
-4% | Nc1ccc(C23CC4CC(CC(CO)(C4)C2)C3)cc1
11% | COCCCn1c(=O)/c(=C\c2ccc(OC(F)F)c(OC)c2)s/c1=C(/C#N)C(=O)NCCOC
-1% | COCCC1CCCCN1C(=O)c1cc(COc2cccc(C(C)=O)c2)on1 (stereo unspecified)
7% | CCC(CC)C(=O)NCCc1cc2c(OC)ccc(OC)c2[nH]c1=O
-3% | Cc1ccc(C(=O)OCC(=O)NC(C)C)cc1S(=O)(=O)N1CCOCC1
-9% | COc1ccc(OC)c(CCNC(=O)CSc2ccsc2[N+](=O)[O-])c1
4%&12% | COc1ccc(-c2cc(C(=O)Nc3ccc4c(c3)OCO4)no2)cc1OC
-9% | CCOC(=O)C1C2C=CC3(CN(c4ccc(Cl)c(F)c4)C(=O)C13)O2 (stereo unspecified)

# Next records
VDR inh | Molecule
-20% | CC(C)(C)OC(=O)NC(=NCCCc1cn(CC(=O)N2CCN(C(=O)OC(C)(C)C)CC2)nn1)NC(=O)OC(C)(C)C
-22% | O=C(NCC1CCCO1)c1cc2c([nH]c3ccccc32)c(-c2cccc(Br)c2)n1 (stereo unspecified)
-22% | NC(=S)N/N=C/c1coc2ccc(Br)cc2c1=O
25% | C/C(=N\NC(=O)c1ccncc1)c1cccc(NC(=O)c2ccc(Cl)s2)c1
-11% | CCCCc1nc2sc3c(SCC(=O)NCc4ccco4)ncnc3c2c2c1CCC2
-9% | Cc1cccc(NC(=O)CSCC(=O)Nc2ccccc2C(=O)NC2CC2)c1
-2% | O=C(CNC(=O)c1ccc(Br)o1)NCc1ccccc1
4% | COc1ccccc1N1CCN(C(=O)c2ccc(S(=O)(=O)N3CCCCC3)cc2)CC1
-2% | Cc1ccc(SCCn2nc(C(=O)O)c3ccccc3c2=O)cc1
-8% | CCC1(c2ccc(F)cc2)NC(=O)N(CC(=O)N2CCc3ccccc3C2)C1=O (stereo unspecified)
17% | CC(C(=O)Nc1sc2c(c1C(=O)NCc1ccco1)CCCC2)N1C(=O)c2ccccc2C1=O (stereo unspecified)
? | Cc1ccc(S(=O)(=O)N2CCN(Cc3ccccc3Cl)CC2)cc1

# Records listed so far shown as hits in VDR inh:
VDR inh | Molecule
79µM* | CN(C)S(=O)(=O)c1ccc2nnn(O)c2c1
22µM* | CC(CCC(C)C(C)(C)C)[C@@H]1CC[C@H]2C3C[C@H](OS(O)(=S)=S)[C@H]4C[C@H](OS(O)(=S)=S)[C@@H](OS(O)(=S)=S)C[C@]4(C)[C@H]3CC[C@]12C (stereo partly specified) (tested in a mixture with another compound)

# 3 of the entries above in order of the VDR inh value, smallest number first.
structure,VDR inh
O=C(NCC1CCCO1)c1cc2c([nH]c3ccccc32)c(-c2cccc(Br)c2)n1 (stereo unspecified),-22%
Cc1ccc(SCCn2nc(C(=O)O)c3ccccc3c2=O)cc1,-2%
C/C(=N\NC(=O)c1ccncc1)c1cccc(NC(=O)c2ccc(Cl)s2)c1,25%

# The results go on:
VDR inh | Molecule
11% | COc1ccc(NC(=O)NCc2ccccn2)cc1OC
-9% | CCCC(=O)Nc1cccc(-c2nc3cc(C)c(C)cc3o2)c1
-16% | CN1C(=O)c2ccc(C(=O)Nc3ccccc3O)cc2C1=O
-9% | O=[N+]([O-])c1ccccc1NCCNc1ncc(C(F)(F)F)cc1Cl
-15% | C(=N\N1CCN(C2c3ccccc3-c3ccccc32)CC1)/c1ccncc1
8% | C/C(=N\NC(=O)c1ccc(-c2ccccc2)cc1)C1C(=O)c2ccccc2C1=O
-4% | C/C(=N\NC(=S)NCCc1ccccc1)c1ccc(Cl)cc1Cl
9% | CCOc1ccc(NC(=O)CSc2nc3ccccc3c(=O)n2CCCC(=O)NCCCN2CCCC2=O)cc1
-3% | CCN1CSC(=S)N(Cc2ccccc2)C1
-2% | COc1ccc(COC(=O)CCS(=O)(=O)c2ccc(C)cc2)cc1
-2% | O=C1c2ccccc2C(Nc2ccc3c(c2)OCCO3)N1Cc1ccccc1 (stereo unspecified)
9% | Cc1ccc(C)c(OCC(=O)Nc2nonc2NC(=O)COc2cc(C)ccc2C)c1

# Other entries:
VDR inh | Molecule
6% | COc1ccccc1C(=O)N1CCN(C2CCN(Cc3ccccc3)CC2)CC1
-15% | COc1ccc(CN(Cc2cccnc2)S(=O)(=O)c2ccc(-n3cnnn3)c(C)c2)cc1OC
-18% | Cc1ccc(-c2cc(C(=O)N/N=C/c3ccc(Cl)cc3)n[nH]2)o1
10µM* | C/C1=C2/[N-]C(C(CC(N)=O)[C@@]2(C)CCC(=O)NCC(C)OP(=O)([O-])O[C@H]2[C@@H](O)[C@@H](n3cnc4cc(C)c(C)cc43)O[C@@H]2CO)[C@]2(C)N=C(/C(C)=C3N=C(/C=C4N=C1C(CCC(N)=O)C\4(C)C)[C@@H](CCC(N)=O)[C@]\3(C)CC(N)=O)[C@@H](CCC(N)=O)[C@]2(C)CC(N)=O.CC(=O)O.[Co] (stereo partly specified)
-4% | O=C1NC2=C(C(=O)CCC2)C(c2ccc3ncccc3c2)N1 (stereo unspecified)
-24% | Cn1c2ccc(Cl)cc2c2nc3ccccc3nc21
-2% | O=C(c1ccccc1)c1c[nH]c(C(=O)NCCCN2CCOCC2)c1
6% | Nc1cccc(CCc2ccncc2)c1
8% | CCOc1ccc(NC(=O)Cn2c(=O)n(Cc3ccco3)c(=O)c3oc4ccccc4c32)cc1
-6% | CNC(=O)Oc1ccc2c(c1)[C@]1(C)CCN(C)C1N2C (stereo partly specified)
7% | O=C(C1CC1)N1CCc2cc(S(=O)(=O)NC3CCN(Cc4ccccc4)CC3)ccc21
-8% | COc1cccc(-c2ncc3ccccc3c2COC(=O)c2ccc(C(C)(C)C)cc2)c1

# Continued:
VDR inh | Molecule
5% | CC(O)CNCc1cccc2ccccc12 (stereo unspecified)
3% | O=C(Nc1ccc([N+](=O)[O-])cc1)N1CCc2ccccc2C1
9% | O=C(CCC(=O)N1CCN(c2ccc(C(F)(F)F)cn2)CC1)c1cccs1
13% | O=C(COC(=O)/C=C/c1ccc(OC(F)F)cc1)NC(=O)NCc1ccccc1
11% | COc1ccc(-c2c(-c3cc(OC)cc(OC)c3)n(C)c3ccc(-c4cc(F)cc(OC)c4)cc23)cc1
-14% | Cc1cc(C)c(NC(=O)C2CC(=O)N(c3ccc4c(c3)OCCO4)C2)c(C)c1 (stereo unspecified)
-9% | COc1ccc(C)cc1NC(=O)COC(=O)C1CCN(C(=O)c2ccc(Cl)cc2)CC1
2% | O=S(=O)(Nc1nc2ccccc2[nH]1)c1ccc2ccccc2c1
-2% | COc1cc(OC)cc(C(=O)NCC(=O)N2CCCCC2)c1
-7% | O=C(/C=C/c1ccco1)OCC1CCCN2CCCCC12 (stereo unspecified)
-6% | Cn1c(=O)cc(OCC(=O)NCc2cccs2)c2ccccc21
-15% | N#CCC(=O)NC(=O)NCC1CC1

# The results go on:
VDR inh | Molecule
2% | CCCCn1nnnc1NCc1cc(OC)c(OC)c(OC)c1
-4% | O=C(Nc1ccc(Cl)cc1)Nc1nnc(CSc2ccc(Cl)cc2)s1
-6% | COc1cc(C(=O)N2CCN(C3CCCCC3)CC2)cc(OC)c1OC
-27% | O=S(=O)(Nc1nc2ccccc2nc1Cl)c1ccccc1
-2% | Cc1ccccc1CSc1nc(-c2ccccc2)cc(=O)[nH]1
0% | COc1ccc2c(c1)c1ncn(Cc3ccco3)c(=O)c1n2C
9% | Brc1ccc(/C=N/c2nc3ccccc3n2CCN2CCOCC2)cc1
24% | O=C(CSc1nc2ccccc2nc1Cc1ccc(Cl)cc1)N1CCN(c2ccccc2)CC1
9% | COc1cc2nc(CC(C)C)n(NC(=O)c3ccccc3Br)c(=O)c2cc1OC
14% | O=C(c1ccc(F)cc1)N(C(=O)c1ccc(F)cc1)c1ncccn1
-8% | COc1ccc(C(=O)NC=C2C(=O)OC(C)(C)OC2=O)cc1
17% | OC(CNCC#Cc1ccccc1)c1ccccc1 (stereo unspecified)

# Next section:
VDR inh | Molecule
-14% | COc1ccc(NS(=O)(=O)c2c(C)n(C)c(=O)n(C)c2=O)cc1
-28% | O=C(O)C1=CC[C@@H](c2ccc(Cl)cc2)N(S(=O)(=O)c2ccc(Cl)cc2)[C@H]1c1ccc(Br)cc1
-3% | Cc1nonc1CN(C)C(=O)CC1C(=O)NCCN1Cc1cccc(C(F)(F)F)c1 (stereo unspecified)
-3% | COc1ccc(NC(=O)c2c3c(nc4ccccc24)CCN(Cc2ccccc2)C3)c(OC)c1
-7% | CC(C)c1ccc(OCC(O)CN2CCN(c3ccccn3)CC2)cc1 (stereo unspecified)
-1% | CC(C)NC(=S)NN=C1CCCCCCCCCCC1
-5% | CCOc1ccc(-c2noc(CCC(=O)NC3CCCC3)n2)cc1OC
3% | COc1ccc(S(=O)(=O)N2CCC(C(=O)NCCC3=CCCCC3)CC2)cc1C
14% | Cc1cccc(N2CCN(C3(c4ccccc4)C(=O)c4ccccc4C3=O)CC2)c1C
2% | CC(C)C(=O)N1CCN(c2ccccc2NC(=O)c2ccc([N+](=O)[O-])o2)CC1
3% | CCOc1ccc(C2N(c3ccc(F)cc3)C(=O)C3CCCN32)cc1 (stereo unspecified)
? | Cc1sc2ncnc(N3CCC(C(=O)Nc4ccc(Br)cc4Br)CC3)c2c1C

# Next part.
VDR inh | Molecule
5% | CCCCn1cnc2cc(C)c(C)cc21
1% | Cc1cc(-c2ccc(C(C)C)c(S(=O)(=O)Nc3ccccn3)c2)on1
-6% | CC(C)(C)c1ccc(C(=O)c2c[nH]c(C(=O)NCCc3ccccn3)c2)cc1
? | NS(=O)(=O)c1ccc(NC(=O)CN2CCN(S(=O)(=O)c3ccc(F)cc3)CC2)cc1
11% | CCn1c(-c2ccc(N(C)C)cc2)nc2ccccc21

# By substructure, the compounds so far with a tert-butyl group.
VDR inh | Molecule
22µM* | CC(CCC(C)C(C)(C)C)[C@@H]1CC[C@H]2C3C[C@H](OS(O)(=S)=S)[C@H]4C[C@H](OS(O)(=S)=S)[C@@H](OS(O)(=S)=S)C[C@]4(C)[C@H]3CC[C@]12C (stereo partly specified) (tested in a mixture with another compound)
-20% | CC(C)(C)OC(=O)NC(=NCCCc1cn(CC(=O)N2CCN(C(=O)OC(C)(C)C)CC2)nn1)NC(=O)OC(C)(C)C
-8% | COc1cccc(-c2ncc3ccccc3c2COC(=O)c2ccc(C(C)(C)C)cc2)c1
-6% | CC(C)(C)c1ccc(C(=O)c2c[nH]c(C(=O)NCCc3ccccn3)c2)cc1
